Bioassay records (PubChem)
SARS PLP yeast: inhibitors of SARS-CoV papain-like protease in yeast | S. cerevisiae expressing SARS-CoV PLpro, growth rescue; control for the full effect not named in the record | Potency, µM (top dose mostly 32.9 µM), for inactives: at the top dose activity, positive = growth rescue | 330,000 compounds, 0.19% hits; further: 0% is about no effect; nearly all actives have a fitted effect of over 55% in size; growth read by luminescence after 48 h
RE007 growth inh: less growth of the S. pombe RE007 Vpr strain; S. pombe RE007 Vpr strain, BacTiter-Glo ATP luminescence, 24 h; control for the full effect not named in the record; 360,000 compounds, 0.21% hits; Potency, µM (series often up to 92.2 µM), inactives show at the highest dose activity change, negative = less growth; active = well fitted falling curve with a large enough effect; inconclusive = small, poorly fitted or top-dose-only effect; inactive = no such curve, though single readings can be large or run the other way;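 further: on the % scale 0 is the no-effect control and ±100 the full control effect; nearly all actives have a fitted effect of over 50% in size; the assay follows cell death caused by Vpr and the record does not say whether a fall means rescue or toxicity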
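Fission yeast RE007 carrying one integrated HIV-1 vpr copy, seeded at OD 0.01 in PMG+AL medium with 23 nL pinned compound. Grown 24 h at 30 degrees; viability read by BacTiter-Glo luminescence after 5 min.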
Lassa entry inh: blocks Lassa virus binding to or entry into cells; Lassa virus pseudotype entry inhibition, cell reporter; control for the full effect not named in the record; AID 540256; Potency, µM (series often up to 37.9 µM), inactives show at the top dose activity change, negative = inhibition, most hits filed as inhibitors; 300,000 compounds, 1.2% hits; active means well fitted inhibition curve with a large enough effect; inconclusive means small, poorly fitted or top-dose-only effect, or effect the other way; inactive means flat fitted curve, though single readings scatter; tested in HEK293 cells; further: on the % scale 0 is the no-effect control and ±100 the full control effect; nearly all actives have a fitted effect of over 50% in size; luciferase read-out
Cruzain noTriton: blocks cruzain activity in detergent-free assay; P25779; purified cruzain, Z-FR-AMC fluorescence, no detergent; Potency, µM, inactives show max response, negative = inhibition, most hits filed as inhibitors; 200,000 compounds, 2.3% hits; AID 1476; active means well fitted curve in the direction sought with a large enough effect; inconclusive means small, poorly fitted or top-dose-only effect, or another doubt; inactive means no such curve, though single readings can be large; an effect the other way counts as inactive or inconclusive;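 further: plate controls were enzyme without inhibitor for no effect and buffer without enzyme for full effect; nearly all actives have a fitted effect of over 40% in size; top concentration of the series not given in the record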
Target sequence (P25779 123-467 limits assumed): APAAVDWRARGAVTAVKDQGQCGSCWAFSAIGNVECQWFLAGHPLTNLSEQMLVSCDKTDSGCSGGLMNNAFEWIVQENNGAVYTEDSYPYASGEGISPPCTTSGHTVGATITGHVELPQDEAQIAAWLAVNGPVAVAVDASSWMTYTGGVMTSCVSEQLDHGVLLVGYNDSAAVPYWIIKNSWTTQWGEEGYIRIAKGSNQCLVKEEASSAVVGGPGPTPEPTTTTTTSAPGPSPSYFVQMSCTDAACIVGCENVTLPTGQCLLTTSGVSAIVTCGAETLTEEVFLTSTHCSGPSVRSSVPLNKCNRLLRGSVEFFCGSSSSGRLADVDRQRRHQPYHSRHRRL
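Detergent-free condition (0.00005% Triton X-100) in acetate buffer pH 5.5 with DTT. 1.5 nM enzyme and compound were pre-mixed 15 min, then 2 uM Z-FR-AMC substrate added; reaction progress from fluorescence change between first and third reads (60 s).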
NS1 inh: inhibitors of influenza NS1 protein function | S. cerevisiae slowed by influenza A NS1, growth recovery by OD600 | Potency, µM (series often up to 46.1 µM), for the others: at the highest dose activity, positive = more growth | 270,000 compounds, 0.4% hits | AID 2326; further: actives are rising curves; nearly all actives have a fitted effect of over 50% in size
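Read-out: OD600 growth recovery of NS1-expressing budding yeast. Cells grown overnight at 30C in -URA glucose medium, washed, resuspended and diluted 1:100 in 2% galactose assay medium, pH 6.0. Same strain lacking NS1 served as positive control.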
2A StopGo: lowers the luciferase signal of an FMDV 2A StopGo reporter. human cells with a luciferase reporter of 2A StopGo recoding; control for the full effect not named in the record. 410,000 compounds, 1.2% hits. AID 1159524. Potency, µM (highest dose often 57.9 µM), without a hit: at the highest dose signal change, negative = less light; active = well fitted falling curve with a large enough effect; inconclusive = small, poorly fitted or top-dose-only effect; inactive = no such curve, though single readings can be large or run the other way; tested in HEK293T cells; further: on the % scale 0 is the no-effect control and ±100 the full control effect; nearly all actives have a fitted effect of over 45% in size; luciferase light after 4 h
MARV entry inh: inhibitors of Marburg virus binding or cell entry. Marburg virus pseudotyped entry inhibition, cell reporter; control for the full effect not named in the record; about a third of the inactives were read at about 46 µM. 300,000 compounds, 1.8% hits. AID 540276. Potency, µM (titrated, usually from 37.8 µM), without a hit: at the highest dose activity change, negative = inhibition, usual class: inhibitors; active = well fitted inhibition curve with a large enough effect; inconclusive = small, poorly fitted or top-dose-only effect, or effect the other way; inactive = flat fitted curve, though single readings scatter; tested in HEK293 cells; about a fifth of its hits are not listed in these tables; further: on the % scale 0 is the no-effect control and ±100 the full control effect; luciferase read-out
Cruzain inh Det: cruzain (T. cruzi) inhibition with detergent; P25779; purified cruzain, Z-FR-AMC fluorescence, 0.01% Triton; Potency, µM, inactives show max response, negative = inhibition, hits mostly inhibitors; 200,000 compounds, 0.43% hits; active means well fitted curve in the direction sought with a large enough effect; inconclusive means small, poorly fitted or top-dose-only effect, or another doubt; inactive means no such curve, though single readings can be large; an effect the other way counts as inactive or inconclusive;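 further: plate controls were neutral wells for no effect and buffer without enzyme for full effect; nearly all actives have a fitted effect of over 40% in size; top concentration of the series not given in the record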
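Detergent-containing run (0.01% Triton X-100) in acetate buffer pH 5.5 with 5 mM DTT: enzyme at 1.5 nM final, 15 min compound preincubation at room temperature, then 2 uM Z-FR-AMC substrate. Activity taken as 60 s fluorescence increase at 360/450 nm.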
Active calls of the source: *; ? = inconclusive; . = no result given; & = joins results of further samples; [ ] = remark or other dose. Unless noted, the call rests on the fitted dose curve; in most records, active means well fitted rising curve with a large enough effect; inconclusive means small, poorly fitted or top-dose-only effect; inactive means no such curve, though single readings can be large or run the other way. Potency means the concentration at half of the fitted maximal effect. An unsorted share of the library; any-hit rate near 4.8%.

Values run as follows: SARS PLP yeast | MARV entry inh | Cruzain noTriton | Lassa entry inh | RE007 growth inh | NS1 inh | Cruzain inh Det | 2A StopGo
Cc1nn(-c2ccccc2)c(N)c1C1(O)C(=O)Nc2ccc([N+](=O)[O-])cc21 (stereo not drawn)
→ 0.2% | . | . | . | -1.0% | 2.2% | . | -7.2%
Cc1cnc(CNC(=O)c2ccc3oc(Cc4ccccc4)nc3c2)[nH]1
→ 0.9% | . | . | . | -2.2% | 5.0% | . | 3.4%
COc1ccc(N2C(=O)CC(N3CCN(c4ccc(C(=O)c5cccnc5)cc4)CC3)C2=O)cc1 (stereo not drawn)
→ -11.0% | 12.9% | 13.7% | 1.8% | 0.1% | -12.8% | -5.8% | -12.9%
COc1ccc(C(=O)COC(=O)CCCC(=O)Nc2cc(C(F)(F)F)ccc2Cl)cc1
→ . | ? | 6.1% | 8.2%[46.1 µM] | . | . | -9.5% | -0.3%
CCN(CC(=O)Nc1ccc2c(c1)OC(F)(F)O2)Cc1nc2ccccc2c(=O)[nH]1
→ -1.6% | ? | 0.5% | -9.7% | -1.0% | -20.1% | -3.1% | -29.9%
CCC1CN1P(=O)(c1ccccc1)N1CC1CC (stereo not drawn)
→ . | 19.1% | . | 1.3% | -18.9% | . | . | -10.6%
COC(=O)c1cc(OC)c(OC)cc1NC(=S)NC(=O)c1ccco1
→ -2.0% | . | . | . | -3.4% | 0.5% | . | ?
Cc1ccc(C(O)(C(=O)NNc2ccc3ccccc3n2)c2ccc(C)cc2)cc1
→ ? | ? | -3.2%&6.3% | ? | 4.8%&1.3% | 14.9%&17.2% | -3.7%&-3.4% | -20.8%&0.0%
Cc1ccc(-c2nc(CS(=O)CC(=O)NCCCc3ccccc3)c(C)o2)cc1 (stereo not drawn)
→ 2.0% | -28.1%[46.1 µM] | . | 1.1%[46.1 µM] | -0.2% | 12.3% | . | 6.4%
CCOc1ccc(C2CC(c3ccc(CC)cc3)n3nc(N)nc3N2)cc1 (stereo not drawn)
→ 17.4% | . | ? | . | -3.0% | ? | 6.7% | -2.1%
O=C(Nn1cnnc1)c1ccc(OC(F)(F)C(F)C(F)(F)F)cc1 (stereo not drawn)
→ 0.9% | 17.6%[46.1 µM] | . | ? | 12.1% | 5.8% | . | -0.4%
Cc1ccc(NC2=NC(=S)N(CC#N)C23CCCCC3)cc1
→ -3.2% | . | -12.0% | . | . | 9.0% | -2.8% | 2.8%
CCOC(=O)Cn1c(=O)c2c(nc(Br)n2CC(=O)OCC)n(C)c1=O
→ 11.6% | ? | 3.7% | 9.5% | -0.3% | 5.0% | 1.1% | -15.7%
COC(=O)/C=C/COc1ccccc1[N+](=O)[O-]
→ -2.1% | -13.2% | . | -16.0% | ? | 7.4% | . | 63.6%[activator]
COc1cccc(C(=O)Nc2ccc(NC(=O)C3CC3)nc2)c1
→ 0.6% | -0.3%[46.1 µM] | . | -1.7%[46.1 µM] | -9.4% | -11.0% | . | -6.4%
O=C(NN1C(=O)C2C3C=CC(C4CC34)C2C1=O)c1ccccc1Cl (stereo not drawn)
→ 2.5% | 11.2% | 10.1% | -4.2% | -0.6% | 1.1% | -2.2% | -2.9%
Cc1ccccc1N(CC(=O)NCCc1ccccc1)C(=O)c1csnn1
→ -1.2% | 0.3%[46.1 µM] | . | -5.3%[46.1 µM] | 2.2% | -2.2% | . | -5.2%
CCc1ccc(NC(=O)N[C@H](C(=O)O)C(C)CC)cc1 (stereo partly drawn)
→ -1.4% | -3.8% | . | 4.1% | -2.1% | -1.3% | . | 19.4%
O=C(CCc1nnc(Cc2cccc(C(F)(F)F)c2)o1)NCCc1ccccc1F
→ ? | . | . | . | -2.1% | -17.1% | . | 52.8%[activator]
COc1ccc(C)cc1S(=O)(=O)NCCC1=CCCCC1
→ -13.6% | 20.5% | -2.6% | 1.7% | -18.5% | -12.2% | -4.9% | 64.3%[activator]
O=C(NC1CCCCC1)c1cc([N+](=O)[O-])[nH]n1
→ -4.8% | 12.3% | -9.0% | 7.9% | 4.3% | ? | -4.8% | 2.0%
O=c1c(Cc2c(F)cccc2Cl)c(O)ccn1CCCN1CCOCC1
→ -0.2% | ? | . | 0.3% | -21.6% | . | . | 2.8%
CCN(CC)Cc1cc(C(C)=O)ccc1O
→ -0.7% | 0.9% | -8.4% | -0.9% | -6.2% | 4.5% | 0.4% | -11.6%
O=C1OCCC1Sc1nnc(-c2ccccc2)o1 (stereo not drawn)
→ -3.7% | 4.3% | -10.1% | -10.0% | -10.8% | -1.9% | -2.1% | 2.9%
CC1=C(c2ccc(C(C)C)cc2)S(=O)(=O)N=C1N1CCC(C(=O)Nc2ccc(C)cc2)CC1
→ . | . | 5.4% | -8.5%[46.1 µM] | . | . | 1.2% | -16.3%
CCCC(=O)Nc1nnc(SCc2cc(=O)n3ccccc3n2)s1
→ . | . | 4.2% | 21.0%[46.1 µM] | . | . | -1.2% | -17.6%
COc1cc(/C=N/N=C2/SCC(=O)N2c2ccc(O)cc2)ccc1O
→ 0.6% | -24.1%[14.2 µM] | . | -28.4% | -0.5% | . | . | -27.7%
CCCNC(=O)NC(=O)c1cnccc1C(F)(F)F
→ -1.0% | 3.0%[46.1 µM] | . | 4.1%[46.1 µM] | -8.9% | 6.1% | . | -2.6%
CC(C)C(NS(=O)(=O)c1ccccc1)C(=O)N1CCCCCC1 (stereo not drawn)
→ ? | 5.2% | . | 14.1% | 4.0% | -8.4% | . | -3.2%
CC(=O)N1c2ccc(S(=O)(=O)NCCc3ccc(S(N)(=O)=O)cc3)cc2CC1C (stereo not drawn)
→ 12.3% | . | . | . | -5.5% | 4.4% | . | 5.1%

Record cards, from the list above. Values in the order: SARS PLP yeast	MARV entry inh	Cruzain noTriton	Lassa entry inh	RE007 growth inh	NS1 inh	Cruzain inh Det	2A StopGo
`O=C(NC1CCCCC1)c1cc([N+](=O)[O-])[nH]n1` in the list: -4.8%	12.3%	-9.0%	7.9%	4.3%	?	-4.8%	2.0%
`CCCC(=O)Nc1nnc(SCc2cc(=O)n3ccccc3n2)s1` in the list: .	.	4.2%	21.0%[46.1 µM]	.	.	-1.2%	-17.6%

Next records follow:
Values run as follows: SARS PLP yeast | MARV entry inh | Cruzain noTriton | Lassa entry inh | RE007 growth inh | NS1 inh | Cruzain inh Det | 2A StopGo
COc1ccc(NC(=O)CSc2nnc(Cc3ccc(C)cc3)c(=O)n2N)cc1
→ 1.3% | ? | . | -1.9% | -2.2% | . | . | -4.3%
CCOC(=O)C1CCCN(Cc2nc(CC3CC3)no2)C1 (stereo not drawn)
→ 1.3% | ? | . | 10.9% | 2.7% | 7.7% | . | 11.3%
CCCN(CCC)C(=O)Cc1coc2ccc3ccccc3c12
→ 8.9% | -29.8% | 2.7% | -12.5% | -15.0% | -6.3% | 0.3% | ?
O=C(c1cc(-c2ccco2)nc2ccccc12)N(Cc1nnc(-c2ccc(Cl)cc2)o1)C1CC1
→ -0.2% | ? | . | -27.9% | -23.1% | . | . | -20.8%
COc1ccc(-c2csc3nc(-c4ccc(Cl)cc4)oc(=O)c23)cc1
→ . | 0.0%[46.1 µM] | 6.9% | 23.7%[46.1 µM] | . | . | -3.6% | -11.0%
COc1cccc(CN2CCCC(C(=O)Nc3ccc(-c4cscn4)cc3)C2)c1 (stereo not drawn)
→ 2.7% | ? | . | ? | -6.7% | -4.1% | . | -17.0%
Cc1ccc(NC(=O)CCN2CCN(C/C=C/c3ccccc3)CC2)cc1C
→ -7.9% | ? | -26.1% | -4.8% | -0.4% | 13.4% | 7.3% | 0.0%
COc1ccc(Cc2nnc(-c3ccccc3)o2)cc1
→ 1.5% | 5.0%[46.1 µM] | . | 0.9%[46.1 µM] | 17.8% | . | . | 14.9%
COC(=O)c1c(NC(=S)NN2CCN(C)CC2)sc2c1CCC(C)C2 (stereo not drawn)
→ 0.5% | ? | . | ? | -18.2% | -1.4% | . | -14.8%
CCN1CCN(Cc2ccc(NC(=O)c3cc(NC(=O)N4CCNC4=O)cc(OC)c3)cc2C(F)(F)F)CC1
→ 1.1% | . | . | . | -3.4%&-2.3% | 1.4% | . | ?
CC(C)(C)C(=O)Nc1nnc2n1CCS2
→ . | . | -5.6% | 17.4%[46.1 µM] | . | . | -0.7% | -10.9%
O=C(Nc1cc(C(F)(F)F)ccc1N1CCOCC1)c1ccc(F)cc1
→ 2.6% | 12.5% | -7.7% | 6.0% | 2.2% | -7.7% | 2.2% | -7.2%
c1cncc(C(c2nnnn2C2CCCC2)N2CCCC2)c1 (stereo not drawn)
→ -1.0% | -6.8% | 6.6% | -17.8% | 6.8% | -5.6% | 2.8% | .
COc1ccc(NC2=CC(=O)N(C)C2=O)cc1
→ -5.5% | ? | 4.3% | 15.5% | -5.4% | ? | -4.4% | 65.3%[activator]
CCOc1ccc(-c2c(C)nn3c(C)c(C(=O)Nc4cccc(Cl)c4C)cnc23)cc1OCC
→ . | . | -1.5% | 21.8%[46.1 µM] | . | . | -3.9% | ?
COc1ccccc1C/C(N)=N/OC(=O)COc1cccc(C)c1
→ -66.6% | -5.1% | -12.4% | -0.8% | ? | 1.3% | -5.6% | -6.8%
CN(Cc1nc2ccccc2s1)C(=O)c1ccc(F)cc1
→ 0.9% | -0.1%[46.1 µM] | . | 24.2%[46.1 µM] | 15.1% | -8.3% | . | 20.4%
CC1CCN(S(=O)(=O)N2CCC(C(=O)NCCc3ccccc3)CC2)CC1
→ 5.6% | . | . | . | -5.1% | 0.1% | . | -3.6%
Cc1ccc2c(c1)c1ncnc(N3CCc4ccccc4C3)c1n2C
→ -20.5% | ? | -11.0% | -3.2% | -11.9% | -101.8% | -1.8% | ?
COC(=O)c1ccc(Cc2ccc(C(=O)OC)o2)o1
→ 4.3% | 18.7% | -1.5% | -0.7% | 3.3% | -11.9% | 0.3% | .
CCn1c(=O)cc(OCC(=O)N(C)c2ccccc2F)c2ccccc21
→ 7.6% | . | -14.6% | . | 5.6% | ? | 1.7% | -24.8%
